Six1-Eya2 inh: inhibitors of human Six1/Eya2 interaction. actives 0.56% (n = 360,000). AlphaScreen GST-Six1/His-Eya2 binding, biochemical; stronger effect = lower value; control for the full effect not named in the record. Q15475+O00167. activity change, % (no concentration beside the values); in the data active = activity change below about -65%; inconclusive = about -30% to -65%; inactive = above about -30%; also: % is scaled to controls: 0 for no effect and ±100 for the full control effect; compound concentration not given in the record
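Compounds are tested against tagged Six1 and Eya2 proteins bridged by glutathione donor and nickel acceptor beads; after a one-hour incubation at 37 °C without light, AlphaScreen emission is recorded.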
D2 ag: activates the human D2 dopamine receptor | P14416 | DiscoveRx PathHunter D2 beta-arrestin, luminescence, 90 min; 100% = 57 uM dopamine signal | activation, % (test concentration not listed) | actives 0.084% (n = 360,000) | AID 624465; in the data active = activation above about 40%; inconclusive = about 15% to 40%; inactive = below about 15%; also: compound concentration not given in the record; the text of the record calls up to 30% inactive
Target sequence (P14416 whole entry, looked up): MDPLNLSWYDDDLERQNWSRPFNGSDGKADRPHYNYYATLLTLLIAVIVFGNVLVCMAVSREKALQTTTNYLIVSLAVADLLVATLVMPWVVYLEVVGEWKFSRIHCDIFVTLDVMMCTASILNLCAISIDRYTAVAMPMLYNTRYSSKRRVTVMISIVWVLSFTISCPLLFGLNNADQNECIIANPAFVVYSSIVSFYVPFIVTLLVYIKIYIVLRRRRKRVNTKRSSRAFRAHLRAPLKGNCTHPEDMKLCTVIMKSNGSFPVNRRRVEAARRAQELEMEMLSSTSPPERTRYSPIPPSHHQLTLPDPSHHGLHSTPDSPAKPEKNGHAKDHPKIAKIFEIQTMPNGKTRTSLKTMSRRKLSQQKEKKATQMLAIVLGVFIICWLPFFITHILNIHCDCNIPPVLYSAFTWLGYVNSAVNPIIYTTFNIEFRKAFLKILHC
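Agonist mode: compounds alone added to overnight-plated D2 PathHunter cells for 90 min at 37 C, with 57 uM final dopamine (EC100) defining full response. Beta-arrestin recruitment detected by chemiluminescent reagent, read after 1 h at ambient temperature.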
PINK1 expr mod: PINK1 expression modulation | PINK1 immunofluorescence, high-content cytometry, 24 h | Potency, µM (series often up to 76.6 µM), for the others: at the top dose activation (PINK1 increase), hits mostly activators | actives 0.2% (n = 410,000); active = well fitted activation curve with a large enough effect; inconclusive = small, poorly fitted or top-dose-only effect; inactive = flat fitted curve, though single readings scatter; cell line not stated here;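 also: potency is read from the fitted curve at half-maximal effect; % of control where 0% means no effect; nearly all actives have a fitted effect of over 65% in size; a mitochondrial uncoupler was the plate control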
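Stable cell line treated 24 h with compounds at 5 concentrations (CCCP controls), then fixed and immunostained for PINK1 plus nuclear and cell stains; PINK1 immunofluorescence quantified by laser-scanning microplate cytometry.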
CtBP-E1A blk: CtBP/E1A binding inhibition; AlphaScreen GST-E1A/His-CtBP binding, 1536-well; stronger effect = lower value; control for the full effect not named in the record; activity change, % (concentration not given with the values); actives 0.49% (n = 340,000); AID 651724; in the data active means activity change below about -65%; inconclusive means about -30% to -65%; inactive means above about -30%; also: % is scaled to controls: 0 for no effect and ±100 for the full control effect
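Protein mix (5X: 125 nM each GST-E1A, His-CtBP) was incubated with pinned compound 2 h at 37 deg C in dark, in 50 mM Tris pH 8.0 buffer with 300 mM NaCl. Glutathione donor and nickel acceptor beads followed; AlphaScreen signal read after 1 h.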
D2 PAM: human D2 receptor positive allosteric modulation. P14416. DiscoveRx D2 beta-arrestin cells, luminescence, 90 min; 100% = 57 uM dopamine signal. potentiation, % (no concentration beside the values). actives 0.23% (n = 360,000); active = potentiation of 50% or more; inconclusive = 30% to 50%; inactive = 30% or less;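 also: compound concentration not given in the record; tested on top of an EC20 dose of dopamine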
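PathHunter beta-arrestin assay in DiscoveRx D2 cells. Compounds were added with an EC20 of dopamine (50 nM final) for 90 min at 37 deg C. Luminescence was read 1 h after detection reagent, with 57 uM dopamine as the EC100 control.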
TRPML1 ag: agonists of human TRPML1 channel; AID 624414; activation, % (concentration not given with the values); TRPML1-expressing cells, Ca2+ dye fluorescence, FDSS; host cell line not named in the record; reference of the full effect not given here; actives 0.12% (n = 410,000); Q9GZU1; in the data active = activation above about 50%; inconclusive = about 30% to 50%; inactive = below about 30%; also: 0% is about no effect; the text of the record puts the active cut at 80%
Target sequence (Q9GZU1 whole entry, looked up): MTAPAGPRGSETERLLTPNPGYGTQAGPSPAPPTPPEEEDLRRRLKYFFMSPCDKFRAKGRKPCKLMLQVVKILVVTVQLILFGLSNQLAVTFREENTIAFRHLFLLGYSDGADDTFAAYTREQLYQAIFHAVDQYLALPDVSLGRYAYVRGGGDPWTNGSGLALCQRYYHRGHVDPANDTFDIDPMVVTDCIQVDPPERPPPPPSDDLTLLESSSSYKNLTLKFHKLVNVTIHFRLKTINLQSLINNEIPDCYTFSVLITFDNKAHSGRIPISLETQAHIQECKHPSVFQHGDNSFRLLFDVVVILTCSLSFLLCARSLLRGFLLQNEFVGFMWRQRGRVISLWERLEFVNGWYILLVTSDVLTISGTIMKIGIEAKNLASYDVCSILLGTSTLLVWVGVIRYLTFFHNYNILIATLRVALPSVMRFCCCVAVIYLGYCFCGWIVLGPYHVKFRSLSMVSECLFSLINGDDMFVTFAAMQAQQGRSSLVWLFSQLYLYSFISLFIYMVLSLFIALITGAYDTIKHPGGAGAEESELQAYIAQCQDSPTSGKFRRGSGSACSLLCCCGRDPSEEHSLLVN
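Tetracycline-induced TRPML1-DL cells are seeded and incubated overnight before loading with a no-wash Ca2+ dye and quencher. Agonist activity is taken from the 110 s fluorescence read following compound pin-transfer on an FDSS, before EC80 54-4 challenge.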
* marks the source's active call; other numbers are inactive results; ? = inconclusive; · = not tested or not shown; & = joins results of further samples; [ ] = remark or other dose.

Below each compound: D2 PAM, D2 ag, PINK1 expr mod, CtBP-E1A blk, Six1-Eya2 inh, TRPML1 ag
1) CCn1c(=S)sc2c(=O)n(CC(=O)Nc3cccc(Br)c3)c(C)nc21
 : -8, 1.8, ?, ·, -5, 0.0
2) COc1cccc(C2=CC(=O)C[C@H](c3ccc4c(c3)OCO4)C2)c1OC
 : 5, 3.5, 3.7%, ·, -9, 1.4
3) CCOC(=O)c1c(NC(=S)N2CCOCC2)sc2c1CCN(C(=O)OCC)C2
 : -2, -0.1, -2.1%, -1, -13, 1.8
4) COc1ccc2c(c1)-c1nc(NC(=O)c3cccs3)sc1CC2
 : 8, -2.9, 6.1%, 0, -1, 0.4
5) COc1ccc(N2CCN(C(C)C(=O)N3CCCC3)CC2)cc1 (stereo not given)
 : -8, -2.3, -0.9%, 1, 2, -0.1
6) CCCCCn1nc(C)c(/C=N/NC(=O)c2ccoc2C)c1C
 : -1, 0.0, 0.1%[38.3 µM], 15, 1, 4.5
7) Cc1cccc2sc(NNC(=O)c3cc(-c4cccs4)nc4ccccc34)nc12
 : 6, 2.9, ?, -1, -2, -0.8
8) COc1cccc(CN2CCC(C(=O)NC(c3ccc4c(c3)OCO4)c3ccccn3)CC2)c1 (stereo not given)
 : -13, -5.0, -0.9%, -8, -12, -0.5
9) CC(C)N(CCNC(=O)C1CCC(=O)N1Cc1ccc(F)cc1)Cc1ccccc1 (stereo not given)
 : -27, -4.4, -1.3%, 6, -16, -0.3
10) O=C(CN(Cc1ccccc1Cl)C(=O)c1csnn1)NCc1ccccc1
 : -9, -6.8, 0.0%, 1, -5, 0.1
11) COc1ccc(CNC(=O)C2CCCN(S(=O)(=O)N3CC(C)CC(C)C3)C2)c(OC)c1 (stereo not given)
 : -10, -1.0, -1.2%, -13, 0, -1.6
12) COc1ccc(-c2cc(C(=O)N3CCN(c4ccccc4O)CC3)c3ccccc3n2)cc1OC
 : 27, ?, 0.4%, -3, -13, 2.5
13) Cc1cccc(C)c1N(CC(=O)NCc1ccco1)C(=O)CNS(=O)(=O)c1ccc(F)cc1
 : -3, 1.8, 0.2%, -12, -7, -0.4
14) COc1cc(-c2n[nH]c(=S)n2-c2cc(C(F)(F)F)ccc2Cl)cc(OC)c1OC
 : 15, -0.6, 1.7%, 1, -3, 0.8
15) NC(=O)c1ccsc1NC(=O)COC(=O)c1cc(=O)[nH]c2ccccc12
 : -17, -6.5, 4.6%, 1, 5, -0.1
16) COC(=O)Cn1c(C)c(/C=C/c2cc[n+](C)cc2)c2ccccc21
 : -5, 1.4, -0.4%, ·, 1, 11
17) Cc1c(NC(=O)CSc2nnc(-c3cccc(Cl)c3)o2)c(=O)n(-c2ccccc2)n1C
 : -3, 1.1, -3.1%, 2, 0, -0.4
18) COc1ccc(Cc2nnc(SCC(=O)c3ccc4c(c3)OCO4)o2)cc1
 : -1, -1.8, -0.3%, 6, -6, 0.4
19) CC1=CC(=C(C#N)c2nc3ccccc3s2)C=C(C)N1CC1CCCO1 (stereo not given)
 : -3, -0.1, -1.3%, 5, 35, 26
20) COC(=O)c1ccccc1COn1c(=O)c[n+]([O-])c2ccccc21
 : -27, -3.8, -1.3%, 1, -1, 1.6

Part of the list above, in markdown:
| No. | SMILES | D2 PAM | D2 ag | PINK1 expr mod | CtBP-E1A blk | Six1-Eya2 inh | TRPML1 ag |
| --- | --- | --- | --- | --- | --- | --- | --- |
| 10 | O=C(CN(Cc1ccccc1Cl)C(=O)c1csnn1)NCc1ccccc1 | -9 | -6.8 | 0.0% | 1 | -5 | 0.1 |
| 11 | COc1ccc(CNC(=O)C2CCCN(S(=O)(=O)N3CC(C)CC(C)C3)C2)c(OC)c1 (stereo not given) | -10 | -1.0 | -1.2% | -13 | 0 | -1.6 |

Returning to the listing, repeating the 3 entries before the break.
Below each compound: D2 PAM, D2 ag, PINK1 expr mod, CtBP-E1A blk, Six1-Eya2 inh, TRPML1 ag
18) COc1ccc(Cc2nnc(SCC(=O)c3ccc4c(c3)OCO4)o2)cc1
 : -1, -1.8, -0.3%, 6, -6, 0.4
19) CC1=CC(=C(C#N)c2nc3ccccc3s2)C=C(C)N1CC1CCCO1 (stereo not given)
 : -3, -0.1, -1.3%, 5, 35, 26
20) COC(=O)c1ccccc1COn1c(=O)c[n+]([O-])c2ccccc21
 : -27, -3.8, -1.3%, 1, -1, 1.6
21) Cc1nn(-c2ncc(C(F)(F)F)cc2Cl)c(=O)n1-c1ccccc1Cl
 : -1, -2.1, -1.0%, 6, -3, 1.2
22) COc1cc(CNCC(C)C)cc(Br)c1OCC(=O)Nc1ccccc1
 : -23, -4.1, ·, 1, -2, 1.0
23) Cn1cc(C(=O)N2CCN(c3ccccc3)CC2)c(=O)c2cc(S(=O)(=O)N3CCOCC3)ccc21
 : -8, -0.4, 1.7%, -4, -1, -0.5
24) Cc1ccc2c(n1)sc1c(N)ncnc12
 : -4, -1.3, -1.5%, ?, ?, -0.4
25) COc1ccc(NC(=O)c2ccc(-c3ccc(-c4noc(C)n4)cc3C)cc2)cc1N1CCN(C)CC1
 : -11, -1.1, -0.5%&4.7%, -26, -5, 0.6&1.0
26) Cc1oc(-c2ccccc2)nc1Cn1cccc1C1=NC(c2ccccc2)CO1 (stereo not given)
 : 7, -5.0, 5.0%, -3, 0, -0.2
27) CCc1nnc(NS(=O)(=O)c2ccc(NC(=O)Nc3ccc(OC)cc3)cc2)s1
 : -4, 1.4, -0.3%, -18, 0, 0.2
28) COc1ccc(OCC(N)=O)cc1
 : -3, 0.6, 1.3%, 0, 8, -0.1
29) Oc1ccc(N2CCN(C(c3cccnc3)c3nnnn3Cc3ccccc3)CC2)cc1 (stereo not given)
 : 19, ?, -1.3%[38.3 µM], 7, -4, 1.3
30) Clc1ccc2nc(N3CCN(c4ccccc4)CC3)sc2c1
 : 8, 0.6, 0.5%, 1, 0, 0.8
31) CCc1nnc(NS(=O)(=O)c2ccc(NCc3cc(Cl)cc(Cl)c3O)cc2)s1
 : -19, -5.0, 4.0%, 3, ?, -0.5
32) CCOC(=O)c1nnn(-c2nonc2N)c1CN(C)C1CCCCC1
 : -2, 2.4, 19%, -7, -6, 0.6
33) Cc1ccc(N2C(=O)CC(Sc3ccccc3C(=O)O)C2=O)c([N+](=O)[O-])c1 (stereo not given)
 : -1, -2.4, 1.0%, -7, -4, 0.6
34) Cc1ccc(C(=O)NCCCNC(=O)c2ccc(C)nc2)cc1
 : -3, 1.1, -0.5%, -1, 1, -0.1
35) CCCCC(C(=O)NC(C)c1ccccc1)C(=O)NC(C)c1ccccc1 (stereo not given)
 : -9, -4.4, 0.6%, 0, 8, -0.4
36) O=C(Nc1ccccc1F)Oc1cccc(OC(=O)Nc2ccccc2F)c1
 : 0, 0.9, 1.4%, ·, -1, 1.2
37) CCOP(=O)(OCC)C(Nc1ccc([N+](=O)[O-])cc1)c1ccc(Cl)cc1 (stereo not given)
 : 24, 3.9, 0.0%, ·, -9, 4.4
38) CCCCn1c(N)c(N(CCOC)C(=O)CN2C(=O)C3CCCCC3C2=O)c(=O)[nH]c1=O (stereo not given)
 : -4, 3.6, 1.2%, 7, 9, -0.1
39) CCOc1ccc(NC(=O)CN(C)C(=O)C2(c3ccccc3)CC2)cc1OCC
 : 9, 1.7, 0.0%, -5, -4, -0.3
40) c1ccc2c(c1)nnn2Cc1nnc2sc(-c3ccc4c(c3)OCCO4)nn12
 : -16, -2.0, 2.1%[38.3 µM], 15, -1, -0.3

Next section; it opens with the two that closed the last part.
Below each compound: D2 PAM, D2 ag, PINK1 expr mod, CtBP-E1A blk, Six1-Eya2 inh, TRPML1 ag
39) CCOc1ccc(NC(=O)CN(C)C(=O)C2(c3ccccc3)CC2)cc1OCC
 : 9, 1.7, 0.0%, -5, -4, -0.3
40) c1ccc2c(c1)nnn2Cc1nnc2sc(-c3ccc4c(c3)OCCO4)nn12
 : -16, -2.0, 2.1%[38.3 µM], 15, -1, -0.3
41) COC(=O)c1cc(OC)ccc1-c1ccc(OC)cc1
 : 10, 0.4, 6.6%[38.3 µM], -21, 11, -0.4
42) CCOC(=O)c1cn2c(C)cccc2n1
 : -5, -1.9, -2.2%, 5, 5, -0.3
43) CN1CCN(C(=O)C(=O)c2cn(CC(=O)N3CCOCC3)c3ccccc23)CC1
 : -9, -1.2, -0.7%, 8, 2, 0.3
44) Cc1ccc(C)c(-n2c(SCC(=O)O)nc3sc4c(c3c2=O)CCCC4)c1
 : -3, 3.2, 0.7%, 3, -7, -0.2
45) Cc1ccc(/C=N/NC(=O)c2nnn(-c3nonc3N)c2CN(C)C2CCCCC2)cc1
 : 1, 5.2, 0.1%, ·, 5, -0.4
46) CCn1c(SCC(=O)NCCc2ccc(OC)c(OC)c2)nc2c([nH]c3ccccc32)c1=O
 : -10, -1.5, 0.7%, -8, -3, -0.1
47) CCN1C(=NCCc2ccccn2)N[C@@H](c2cccc(F)c2)C(C(=O)OC)=C1C
 : -14, -2.2, -0.4%, 4, 1, -0.9
48) O=S(=O)(NC1=NCCC1)c1ccc(F)cc1F
 : -7, -3.1, -1.3%, 0, 13, -0.9
49) N#C/C(=C(/O)c1ccc(Br)s1)c1nc2ccccc2[nH]1
 : -9, -7.4, 14%, 4, 1, -0.4
50) N#Cc1cc(Nc2c(N)nc[nH]c2=O)c([N+](=O)[O-])cc1C#N
 : 3, 6.9, 0.6%, ?, 0, 0.2
51) O=c1[nH]c(N2CCN(Cc3ccc4c(c3)OCO4)CC2)nc2c1CCCC2
 : -7, 3.0, -1.0%, 5, 8, 1.0
52) O=C(O)[C@H]1Cc2ccccc2CN1S(=O)(=O)c1ccc(F)cc1
 : -6, -2.9, -0.5%, -4, 8, -0.8
53) CCC(=O)c1ccc(OCC(O)Cn2nc(C)cc2C)cc1 (stereo not given)
 : 3, 0.1, 1.6%, ·, -1, -0.4
54) O=C(N/N=C/c1ccc([N+](=O)[O-])o1)c1cn(-c2ccccc2)nc1-c1ccc(Cl)cc1
 : 3, 1.5, 12%, ·, -1, 0.2
